# Screening data as filed in PubChem.
# Tg IFNy HTS = T. gondii growth inhibition with IFN-gamma, primary screen, cell-based. Toxoplasma gondii growth in IFN-gamma-treated host cells; hits give low values; reference of the scale not given here. activity change, negative = inhibition, %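 (about 20 µM by stock and volumes)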. actives 3.8% (n = 69,000). AID 1259416, 2018;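 active = below -70%; inconclusive = fit judged invalid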;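 note: host cells are HeLa cells infected with Toxoplasma gondii; parasite growth read as luciferase light; one replicate is shown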
# * = called active by the depositor; i = inactive; ? = inconclusive; & = joins results of further samples.
SMILES,Tg IFNy HTS
Cc1nc(C)c(C(=O)N2CC(C(=O)N3CCCCCC3)C2)o1,-5
CC(=O)Nc1ccc(Cl)c(C(=O)N(C)Cc2ccc3nonc3c2)c1,-44
CN1CC2(CCN(C(=O)c3cnc(N4CCOCC4)nc3)C2)OC1=O (stereo unspecified),22
O=C1C[C@H](c2ccccc2)C(=O)N[C@@H](c2ccccc2)C/C=C\C[C@H](c2ccccc2)N1,-17
CCOC1CCC2(CCN(Cc3cnn(C)c3)CC2)c2ccccc21 (stereo unspecified),-13
O=S(=O)(c1ccccc1)N1CCN(CC(O)COc2ccc3ccccc3c2)CC1 (stereo unspecified),-83*
CC[C@@H]1N(CCOCc2ccccc2)CCC[C@@]12CCC(=O)N2,-11
CC(=O)Nc1ccc(C(=O)N(CCc2cccs2)C2(C(=O)NCc3ccccc3)CCN(C(C)=O)CC2)cc1,44
CC(C)N1CCC2(CC1)CC(NC(=O)c1cccn1C)c1ccccc1O2 (stereo unspecified),5
OC(COCc1ccccc1)CN1CCNCC1 (stereo unspecified),-11
N#C[C@@H]1[C@H](c2ccccc2C2=CCCC2)[C@@H](CO)N1C(=O)Cc1ccncc1,-24
Cn1cc(CN2CCCC23CCN(c2ccccc2F)CC3)cn1,-69
COc1cc(NC(=O)c2ccc(Cl)cc2Cl)ccc1-c1cc2ccccc2oc1=O,-85*
CO[C@H]1CN(C)C(=O)c2cccc(C#N)c2OCC[C@H]2CC[C@@H](OC)[C@H](CN(C)C(=O)[C@H]1C)O2,14
CCS(=O)(=O)N1CCC2(CCN(c3cnn(C)c3)C2=O)C1 (stereo unspecified),2
Cc1noc(C)c1S(=O)(=O)Nc1ccc2c(c1)C(=O)N([C@H](C)CO)C[C@@H](C)[C@@H](CN(C)Cc1ccc(C(=O)O)cc1)OCCCC[C@@H](C)O2,71
COc1ccc2c(C3C(=O)c4ccccc4C3=O)nccc2c1,-108*
Cc1ccc(CNC(=O)NCC(c2cccnc2)c2c[nH]c3ccccc23)cc1 (stereo unspecified),18
C[C@@H]1CN([C@H](C)CO)C(=O)CCCn2nncc2CO[C@@H]1CN(C)C(=O)Nc1ccc2c(c1)OCCO2,445
O=C(Cc1c[nH]c2ccccc12)N1CCC(C2CCCCN(Cc3ccccc3)C2=O)CC1 (stereo unspecified),-35
CC(C)n1nc(CN2CCCC2)c2c1CN(C(=O)c1ccc[nH]1)CC2,-44
CCS(=O)(=O)N(C)c1ccc(C(=O)NCc2ccc3c(c2)OCO3)cc1,61
CS(=O)(=O)CC(=O)N1CCCC(OCc2cccnc2)C1 (stereo unspecified),-69
COC(=O)[C@@H]1C[C@@H](N(C)C)CN1S(=O)(=O)CCc1ccncc1,21
Cc1ccccc1C(=O)NCCc1sc(-c2ccc(Cl)cc2)nc1C,-56
SMILES,Tg IFNy HTS
NC(CN1CCOCC1)c1ccccc1 (stereo unspecified),-51
O=C(c1cccc(-c2ncc[nH]2)c1)N1CC[C@@H](c2ccc(F)cc2)[C@H](O)C1,-51
CCc1nc2ccccc2n1CC(C)C(=O)Nc1nnc(C2CCCCC2)s1 (stereo unspecified),-8
CC(C)N1CC2CCCC(C1)C2CC(=O)NCc1ccco1 (stereo unspecified),5
COc1ccc(CCC(=O)NCCc2csc(-c3ccc(F)cc3)n2)cc1,52
CN(CCCc1nccn1C)c1nccc(N2CCC(O)C2)n1 (stereo unspecified),5
CNc1ncc(CN(C)Cc2cc3n(n2)CCNC3)cn1,-52
CCN(C[C@@H]1[C@@H](c2ccccc2)[C@H](CO)N1C(C)=O)C(=O)NC1CCCC1,-12
Cc1nc(Cn2cnc(-c3nc(C(=O)NCc4ccc(F)cc4F)c4ccccn34)c2)cs1,-57
COc1cccc(OC)c1C(=O)NCCc1sc(-c2ccc(F)cc2)nc1C,42
CCN1CCC2(CN(CCOC)CC23CCN(CC2CC2)CC3)C1=O (stereo unspecified),5
O=C(CCNC(=O)c1cc(C2CC2)[nH]n1)Nc1nccs1,-8
C[C@@H]1CN([C@@H](C)CO)C(=O)c2cccc(NC(=O)Nc3ccc(C(F)(F)F)cc3)c2O[C@@H]1CN(C)S(=O)(=O)c1cn(C)cn1,19
Cc1ncc(-c2ccncc2)c(CCNC(=O)CS(=O)(=O)c2ccc(F)cc2)n1,18
COc1ccc2c(c1)NC1(CCN(C(=O)Nc3cc(C)ccc3C)CC1)c1cccn1-2,198
CC(C)(C)c1cs/c(=N/c2ccccn2)n1-c1cccc(C(F)(F)F)c1,-45
O=C(Cc1c[nH]c2ccccc12)N1CCN(C(=O)c2cc(-c3ccncc3)n[nH]2)CC1,29
CCOc1ccc(-c2nc(CN3CCN(C(=O)c4ccccc4OC)CC3)c(C)o2)cc1,0
COc1cccc(CC2CN(CC(=O)NCc3cccs3)CCO2)c1 (stereo unspecified),2
COc1ccc2c3c([nH]c2c1)[C@H](CO)N(C)CC31CCN(S(=O)(=O)c2cn(C)cn2)CC1,23
COc1ccc(OC)c(C2CCCN2C(=O)c2cc(C(C)(C)C)n3ncnc3n2)c1 (stereo unspecified),-9
O=C(Cn1c(=O)ccc2cc(S(=O)(=O)N3CCCC3)ccc21)Nc1ccc(OC(F)(F)F)cc1,-36
O=c1cc(Cn2cccn2)nc2cc(-c3ccccn3)[nH]n12,4
CNCc1cc(-c2ccc(F)cc2OC)ccc1OC,-32
Clc1ccc(-c2nnc(-c3nc(NCc4ccccc4)c4ccccc4n3)o2)cc1,137
SMILES,Tg IFNy HTS
Cc1ccc(C(=O)NCC(=O)NC2CCN(CC3(c4ccc(Cl)cc4)CCC3)CC2)o1,-28
COCC(=O)Nc1ccc2c(c1)C(=O)N(C)[C@H]1CC[C@@H](CC(=O)NCCCN(C)C)O[C@@H]1CO2,17
O=C1NCCN(Cc2ccccc2C(F)(F)F)C1CC(=O)N1CCC(O)CC1 (stereo unspecified),2
CCn1c(CN2CCC(c3cc(C(C)C)n[nH]3)CC2)nc2ccccc21,-15
COc1ccc(CC(=O)NCCc2csc(-c3ccccc3)n2)cc1,i
C=CCN1CCCC2(CC1)CN(C(=O)Cc1c(C)[nH]c(=O)[nH]c1=O)Cc1ccccc1O2 (stereo unspecified),5
C[C@H](c1ccc(F)cc1CCCC(=O)O)N(c1cc(F)ccc1F)S(=O)(=O)c1ccc(Cl)cc1,2
COC(=O)c1[nH]ncc1CN1CCOc2c(cc(-c3cccs3)cc2OC)C1,2
O=C(NCCCCN1CCN(c2cccc(Cl)c2Cl)CC1)c1ccc2c(c1)Cc1ccccc1-2,-29&-39
CC(C)CN1C[C@@H]2CN(S(=O)(=O)c3cccs3)C[C@H]2C1=O,6
C=CCOCC12CCCOC1CCN(C(=O)C1=CCCC1)C2 (stereo unspecified),32
CCN(Cc1ccccc1)C(=O)CN1C(=O)CCc2cc(Br)ccc21,9
COc1ccc(NC(=O)CN2C(=O)CCc3cc(S(=O)(=O)N4CCOCC4)ccc32)c(OC)c1,76
CCC(=O)Oc1ccc(NC(=S)Nc2c(C)cc(C)cc2C)cc1,11
COCCN1CCN(c2ccc3ccc(C(=O)Nc4ccc(C)cn4)cn23)CC1,-1
CC(C)n1cnc2c1C(C(=O)N1CCN(C)CC1)N(S(C)(=O)=O)CC2 (stereo unspecified),-40
c1ccc(C2CCCN2Cc2cccc3nonc23)nc1 (stereo unspecified),6
N#CCCC1(CCC#N)c2ccccc2-c2ccccc21,-26
CCN1C(=O)N(CC(N)=O)C(=O)C12CCN(Cc1cccc(-c3ccccc3C)c1)CC2,-16
CN(Cc1cn[nH]c1-c1cccc(F)c1)CC1(CO)CC1,9
CC(C)N(C)Cc1cc(=O)n2c(n1)CN(C(=O)c1ccc[nH]1)CCC2,2
O=C1N[C@@H](Cc2ccccc2)COCc2cnnn2CC[C@@H]1Cc1ccc(-c2ccccc2)cc1,45
Cc1c(CN2CCCC(c3nc4ccccc4n3C)C2)c(-c2ccccc2)nn1C (stereo unspecified),5
COc1ccc(Cl)cc1NC(=O)CSCc1ccc(Cl)cc1,-53
CCN(CC)Cc1cnc2c(C(=O)N3CCn4cccc4C3C)cnn2c1 (stereo unspecified),-2
SMILES,Tg IFNy HTS
O=C(Nc1ccc(OC(F)(F)F)cc1)OCCSCC1COc2ccccc2O1 (stereo unspecified),-19
CC(=O)N1[C@H](CO)[C@H](c2ccccc2)[C@@H]1CN(C(=O)c1ccccc1F)C(C)C,2
CCOCC(C)(C)NC(=O)CC(=O)Nc1cc(C)cc(C)c1,4
Cc1oc(C(C)(C)C)cc1C(=O)NC(Cc1ccccc1)C(=O)O (stereo unspecified),-27
COc1ccc2c3c(n(C)c2c1)[C@@H](CO)N(CC1CCOCC1)CC31CN(Cc2nccs2)C1,-11
COc1ccccc1-c1cc2c(=O)n(Cc3nc(-c4ccc(C)cc4C)oc3C)ccn2n1,249
CS(=O)(=O)N(CC(=O)O)C1CCCCC1,-7
COc1ccccc1NC(=O)N1C[C@@H](C)[C@H](OC)CN(C)C(=O)c2cc(NC(=O)c3cnccn3)ccc2OC[C@H]1C,120
Cc1cccc(C2c3[nH]c4ccccc4c3CCN2C(=O)c2ccccc2Cl)c1 (stereo unspecified),-110*
CN1CCN(C(=O)C[C@H]2CC[C@@H]3[C@H](COc4ccc(NC(=O)C5CCOCC5)cc4C(=O)N3C)O2)CC1,8
Fc1cccc(-c2nnc(-c3ccco3)c(-c3ccco3)n2)c1,164
c1ccc2c(c1)Cc1cc(CN3CCn4cncc4C3)ccc1-2,19
Cc1cc(C)c(Cn2nc(C(C)(C)C)cc2C(=O)NN2CCOCC2)c(C)c1,-25
CCc1csc(Cn2ccnc2-c2nc[nH]c2C)n1,-39
O=C(O)c1cc(N(Cc2ccccc2O)Cc2ccccc2O)ccc1O,4
Cc1ccc(-c2csc3nnc(SCC(=O)Nc4cccc(Cl)c4Cl)n23)cc1,-17
C=CCN(CC#Cc1ccccc1)Cc1ccc(O)c(Cl)c1,12
C=CCn1c(SCC(=O)Nc2ccc3c(c2)n(C)c(=O)n3C)nnc1-c1ccco1,30
CCc1ccc(NC(=O)C(=O)NCCc2sc(-c3ccc(C)cc3)nc2C)cc1,122
Cc1cc(C(=O)N2CCCCC2c2nc(C)no2)c2ccc(F)cc2n1 (stereo unspecified),-27
COc1ccc(C(=O)Nc2ccc3c(c2)CCC(=O)N3C)c(C)c1,14
Cc1cnccc1CN(C)Cc1cccc(C(C)(C)C)c1O,47
CCC(=O)N1[C@H](C#N)[C@@H](c2ccccc2-c2ccccc2)[C@@H]1CO,8
CN1CCN(C(=O)c2cncc(N3CCC4(CCOCC4)CC3)n2)CC1,-8
CC(C(=O)NCc1cnn2ccccc12)n1cnc2ccccc21 (stereo unspecified),-15
SMILES,Tg IFNy HTS
Cc1noc(C)c1NC(=O)N(C)C[C@@H]1OCCCC[C@@H](C)Oc2ccc(NC(=O)Nc3ccc(C(F)(F)F)cc3)cc2C(=O)N([C@H](C)CO)C[C@@H]1C,123
CC(C)=CCN(C)Cc1cc(-c2ccncc2)no1,4
O=C(Nc1ccc2c(c1)OCCO2)C1(c2ccccc2)CCOCC1,24
Cc1c(C(=O)N2CCC(C)CC2)oc2ccc3c(c12)C(O)CC1(CCCCC1)O3 (stereo unspecified),-100*
Cc1ccc(F)cc1CC(=O)NCc1ccccc1-n1cncn1,2
Cc1ccnc(NC(=O)CN2C(=O)CCc3cc(S(=O)(=O)N4CCC(C)CC4)ccc32)c1,-3
CCOc1ccc(NC(=O)Cn2cc(C(=O)OC)c3ccccc32)cc1,-5
CCOC(=O)c1ccccc1NC(=O)c1ccc(F)cc1,4
Cc1cc(C(=O)Nc2ccc3c(c2)C(=O)N(C)[C@@H]2CC[C@@H](CC(=O)O)O[C@@H]2CO3)no1,0
CCN(C)C1COC2(CCN(S(=O)(=O)c3ccc(C#N)cc3)CC2)C1 (stereo unspecified),-18
Cc1c(S(=O)(=O)N2CCC3(CC2)Nc2ccccc2-n2cccc23)cnn1C(F)F,-1
CCCn1ncc(-c2nc3c(cnn3CC)[nH]2)c1C,62
COc1ccc(-c2csc(NC(=O)c3ccc(-n4cccn4)nc3)n2)c(OC)c1,17
CC(=O)Oc1ccc2ccccc2c1C(NC(=O)Cc1ccccc1)c1ccccc1Cl (stereo unspecified),?
CCOC(=O)c1cn[nH]c1NC(=S)Nc1cccc(C(F)(F)F)c1,-34
CN(C)c1cc(-c2cc(Cl)sc2Cl)oc(=O)c1Cl,14
NC(=O)C1CCN(C(=O)CCSc2ccc(Cl)cc2)CC1,16
CC(C)Cn1cncc1CNC1CCCNC1 (stereo unspecified),-1
COc1cccc(CNC(=O)Cn2ncc3c(N4CCCCCC4)ncnc32)c1,-51
CCOc1ccc(C(=O)N2CCC3(CC2)NC(=O)c2cc(F)ccc2N3CC)cc1,37
Cc1ccc(-c2nc(C)c(CCNC(=O)C(=O)Nc3ccc4c(c3)OCO4)s2)cc1,-69

# 15 of these compounds, reformatted.
SMILES | Tg IFNy HTS
COc1cccc(CC2CN(CC(=O)NCc3cccs3)CCO2)c1 (stereo unspecified) | 2
COc1ccc2c3c([nH]c2c1)[C@H](CO)N(C)CC31CCN(S(=O)(=O)c2cn(C)cn2)CC1 | 23
COc1ccc(OC)c(C2CCCN2C(=O)c2cc(C(C)(C)C)n3ncnc3n2)c1 (stereo unspecified) | -9
O=C(Cn1c(=O)ccc2cc(S(=O)(=O)N3CCCC3)ccc21)Nc1ccc(OC(F)(F)F)cc1 | -36
O=c1cc(Cn2cccn2)nc2cc(-c3ccccn3)[nH]n12 | 4
CNCc1cc(-c2ccc(F)cc2OC)ccc1OC | -32
Clc1ccc(-c2nnc(-c3nc(NCc4ccccc4)c4ccccc4n3)o2)cc1 | 137
Cc1ccc(C(=O)NCC(=O)NC2CCN(CC3(c4ccc(Cl)cc4)CCC3)CC2)o1 | -28
COCC(=O)Nc1ccc2c(c1)C(=O)N(C)[C@H]1CC[C@@H](CC(=O)NCCCN(C)C)O[C@@H]1CO2 | 17
O=C1NCCN(Cc2ccccc2C(F)(F)F)C1CC(=O)N1CCC(O)CC1 (stereo unspecified) | 2
CCn1c(CN2CCC(c3cc(C(C)C)n[nH]3)CC2)nc2ccccc21 | -15
COc1ccc(CC(=O)NCCc2csc(-c3ccccc3)n2)cc1 | i
C=CCN1CCCC2(CC1)CN(C(=O)Cc1c(C)[nH]c(=O)[nH]c1=O)Cc1ccccc1O2 (stereo unspecified) | 5
C[C@H](c1ccc(F)cc1CCCC(=O)O)N(c1cc(F)ccc1F)S(=O)(=O)c1ccc(Cl)cc1 | 2
COC(=O)c1[nH]ncc1CN1CCOc2c(cc(-c3cccs3)cc2OC)C1 | 2

# An excerpt; count on the stated rates, not on these rows.
